HCMV UL50-53 inh = disrupts HCMV UL50-UL53 complex binding; HTRF UL50-UL53 interaction, normalized percent inhibition; inhibition, % (no concentration beside the values); 190,000 compounds, 0.15% hits;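 active = both replicates at 50% or more, plus weaker picks with an unusually low signal ratio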;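 also: stock transfer was 100 nL into about 20 µL; 0% = negative control wells and 100% = wells with untagged competitor protein; inactives centre near -12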
Active calls of the source: *; & = joins results of further samples. A portion of the library; rates above refer to the full screens.

SMILES	HCMV UL50-53 inh
CC(C)C/C=C/C=C\C(=O)N[C@@H](CC(N)=O)C(=O)N[C@@H]1C(=O)N[C@H](c2ccc(O)cc2)C(=O)N[C@H](CCCN)C(=O)N[C@H]([C@H](C)O)C(=O)N[C@@H](c2ccc(O)cc2)C(=O)N[C@H](c2ccc(O)cc2)C(=O)N[C@@H]([C@H](C)O)C(=O)N[C@@H](Cc2ccccc2)C(=O)N[C@H](CCCN)C(=O)N[C@@H](c2ccc(O[C@@H]3O[C@H](CO)[C@H](O)[C@@H](O)[C@@H]3O[C@@H]3O[C@H](CO)[C@@H](O)[C@H](O)[C@H]3O)cc2)C(=O)NC(C(C)O)C(=O)N[C@@H](c2ccc(O)cc2)C(=O)NCC(=O)N[C@@H](CC(C)C)C(=O)N[C@H](C)C(=O)N[C@@H](c2ccc(O)c(Cl)c2)C(=O)O[C@@H]1C(N)=O (some centres not stated)	-24
Cc1ccc(N2C(=O)CC(Sc3ccccc3C(=O)N3CCOCC3)C2=O)cc1 (configuration not stated)	-3
COc1cccc2sc(=NC(=O)c3ccc(C#N)cc3)n(C)c12	-11
CN(C)S(=O)(=O)c1ccc(C(=O)N2CCN(c3ccccc3)CC2)cc1	-1
CC(C)CCN1C(=O)N(C(C)C)C(=O)C12CCN(Cc1ccc(CN3CCCCC3)s1)CC2	-12
CCCCCCC(Sc1nc(Cl)cc(NCc2ccc(-c3ccccc3)cc2)n1)C(=O)O (configuration not stated)	-22&-22
CN1CCN(CC(O)COc2ccc(C3CCCCC3)cc2)CC1 (configuration not stated)	-13
O=C(O)CCC/C=C\C[C@@H]1C(=O)C[C@@H](O)[C@@H]1/C=C/[C@@H](O)CC1CCCCC1	-21&-21
NCCCC[C@@H]1NC(=O)[C@@H]2C[C@H](NCc3nc(-c4ccccc4)cs3)CN2C1=O	-5
CC(C)CCN1C(=O)N(CC(N)=O)C(=O)C12CCN(Cc1nc3ccccc3s1)CC2	-8
C[C@@]12C(=O)N(c3ccc(C(=O)Nc4cccc5cccnc45)cc3)C(=O)[C@@H]1C1C=CC2C1 (some centres not stated)	-63
CCCn1cc(S(=O)(=O)CC(=O)N2CCc3ccccc32)c2ccccc21	0
COC(=O)[C@H]1[C@H]2C[C@@H]3c4[nH]c5cc(OC)ccc5c4CCN3C[C@H]2C[C@@H](OC(=O)/C=C/c2cc(OC)c(OC)c(OC)c2)[C@@H]1OC	-2
O=P(c1ccccc1)(c1nc2ccccc2s1)N1CCCCCC1 (configuration not stated)	-14
CSc1nnc(NC(=O)c2cccs2)s1	-2
Cc1ccc(C(=O)N[C@H]2C[C@H]3C(=O)N[C@@H](Cc4ccc(O)cc4)C(=O)N3C2)cc1F	-4
COC(=O)c1ccc(CSc2ncnc3c2oc2ccccc23)o1	5
COc1ccc2c(=O)c(-c3ccccc3)coc2c1	-23
CC(C(=O)Nc1cccc(N=Cc2c(O)ccc3ccccc23)c1)c1ccccc1 (configuration not stated)	-7&-7
CCCc1ccc(C(=O)N2CCC2c2cccc(OC)c2)cc1 (configuration not stated)	-13
CC(NC(=O)c1ccncc1)C(c1cccs1)N1CCN(c2ccccc2)CC1 (configuration not stated)	-2
COC(=O)C1=C(C)OC(N)=C(C#N)C1c1ccc(Cl)cc1 (configuration not stated)	-15
Cc1cc(C)c(S(=O)(=O)N2CCNC(=O)CC2)c(C)c1	1
Cc1cc(C)nc(SCc2nc3sccn3c2Br)n1	-7
COc1ccccc1C1C2=C(CC(C)(C)CC2=O)Nc2n[nH]c(C)c21 (configuration not stated)	0
FC(F)(F)c1cccc(-c2noc(-c3cc(-c4ccccc4)c(C(F)(F)F)s3)n2)c1	0&-12&-12
CN(C)Cc1c(O)ccc2cc(-c3nc4ccccc4[nH]3)c(=O)oc12	-53
CCOc1ccc(N2C(=O)/C(=C/c3ccc(Cl)cc3)SC2=S)cc1	-6
CS(=O)(=O)NCC(O)Cn1c2ccccc2c2ccccc21 (configuration not stated)	8&-2
N#CCCn1cc(/C=C2\SC(=S)NC2=O)c(-c2cccc3ccccc23)n1	-79
COc1ccc(-c2c(-c3ccc(O)cc3O)n[nH]c2C(F)(F)F)cc1	-10
Cc1ccc(-c2nn(-c3ccccc3)cc2C#N)o1	-19
CC1CCCCN1CC(O)COc1c(F)cc(Br)cc1F (configuration not stated)	-11
CC1(C)CCCC(C)(C)N1CC(O)COc1ccccc1Br (configuration not stated)	-5
CCn1nc(C(=O)N2CCCC2)c2c1CCC(NCCC1=CCCCC1)C2 (configuration not stated)	5
CCCC(=O)Nc1nc(-c2cc3ccccc3oc2=O)cs1	11
CCOC(=O)c1ccc(-c2coc3cc(OC)c(CC)cc3c2=O)o1	-32
O=C(Nc1ccccc1-c1nc2ccccc2o1)c1ccco1	4
CSc1nc2ccc(NC(=O)c3coc4ccccc4c3=O)cc2s1	2
CCc1ccc(C2CC(=O)NC(SCC(=O)Nc3ccccc3)=C2C#N)cc1 (configuration not stated)	12
CCC1CCCCN1S(=O)(=O)c1ccc(NC(=O)/C=C/c2ccco2)cc1 (configuration not stated)	-6
CCc1ccc(C(=O)Oc2cccnc2)cc1	-4
CCOc1ccccc1C1C(C#N)=C(SC)NC(=O)C1C(=O)OC (configuration not stated)	0
N#CC1=C(N)SC(N)=C(C#N)C1C1CCCCC1	-21
N#C/C(=C\Nc1ccc(C(N)=O)cc1)c1nc(-c2cccc3ccccc23)cs1	-7
C=C1C(=O)O[C@@H]2/C=C(\C)CC/C=C(\C)CC[C@@H]12	-3
Cc1nc2cc(C(=O)N3CCN(C)C(=O)C3)ccc2s1	-1
O=C(O)CCCNC(=O)NC1CCCCC1	-24
CCN1C(=O)c2cccc3c(S(=O)(=O)N4CC(C)OC(C)C4)ccc1c23 (configuration not stated)	-19
CC[C@@H]1Cn2c(c3nc(-c4ccccc4)nc-3n(C)c2=O)N1	-9
Next section.
SMILES	HCMV UL50-53 inh
Cc1ccc(C(=O)Nc2cccc(C(F)(F)F)c2)cc1NC(=O)c1nccnc1N	-3
CCN1C(=O)/C(=C\c2ccc(C)o2)SC1=S	0
O=c1c2nccnc2ncn1Cc1scnc1-c1ccccc1	-46&-46
Cn1c([N+](=O)[O-])cc[n+]1C	-66
O=C(NCc1ccccc1)c1ccc2ncsc2c1	12
COc1ccc(-n2cc(-c3ccccc3)c3c(=O)[nH]cnc32)cc1	-16
O=C1COc2ccc(-n3cccc3)cc2N1	-2
CN=S(=O)(Nc1ccccc1)c1ccc(C)cc1 (configuration not stated)	-27
O=C(Nc1nc2c(Cl)cccc2s1)c1c(F)cccc1F	-27
NC(=O)CCn1c(=O)sc2ccccc21	5
Nc1nc2c(ncn2C2OC(CO)C(O)C2O)c(=O)[nH]1 (configuration not stated)	-13
CC(C)OC(=O)Nc1cc(Cl)cc(Cl)c1	-7
C=CCC1C=C(C)CC(C)CC(OC)C2O[C@@](O)(C(=O)C(=O)N3CCCC[C@H]3C(=O)OC(C(C)=CC3CCC(O)C(OC)C3)C(C)C(O)CC1=O)C(C)CC2OC (some centres not stated)	0
CCOc1ccc2nc(NC(=O)C3CC3)sc2c1	-18
N#C/C(=C/Nc1cccc(Cl)c1)c1nc(-c2ccc(F)cc2)cs1	-6
COc1ccc(C2C(C#N)=C(SCC(=O)Nc3ccccc3)NC3=C2C(=O)CC(C)(C)C3)cc1 (configuration not stated)	5
COc1ccc2cc(-c3nc4ccccc4s3)c(=O)oc2c1	-24
CC(C)c1onc(-c2c(Cl)cccc2Cl)c1COc1ccc(/C=C/c2cccc(C(=O)O)c2)c(Cl)c1	-121
CCOc1ccc2ccccc2c1-c1nc2c(cnn2CC)[nH]1	-46
O=C(CCn1c(=O)oc2ccccc21)N1CCN(c2ccccc2Cl)CC1	-12
C=C1C[C@@H](O)[C@H](/C=C/[C@@H](O)CCCCC)[C@H]1C/C=C\CCCC(=O)O	-9&-9
CC1=CS/C(=C(/C#N)C(=O)NCc2ccco2)N1c1ccccc1	-1
COc1ccc(S(=O)(=O)N2CCN=C2SC)cc1	-6
NC1=NC(=O)C(=Cc2ccc(-c3ccc(C(=O)O)cc3)o2)S1	-94
O=C(O)CCN1C(=O)/C(=C/c2ccccc2)SC1=S	-49
CC(C)CCn1c(CO)nc2ccccc21	-13
CCN1C(=O)c2cccc3c(S(=O)(=O)Nc4cccc(C)n4)ccc1c23	-9
COc1cc(Nc2ccccn2)cc(C(=O)Nc2cccc(C(F)(F)F)c2)c1	-8
O=C(OCc1nc2ccccc2s1)c1ccco1	-16
Cc1cc2ccccc2n1CCNC(=O)c1ccc(S(=O)(=O)N(C)C)cc1	-8
CC(C)C[C@H]1C(=O)N2CCN(Cc3cnn(-c4ccccc4)c3)C[C@@H]2C(=O)N1C	-8
O=C(O)c1ccccc1-c1ccccc1C(=O)Nc1ccccc1O	-12
c1csc(CNc2nc3ccccc3n2CCN2CCCCC2)c1	-10
CC(=O)NCCCc1nc2ccccc2n1C(C)C	-1
C=CCN1CC(C(=O)O)CC1=O (configuration not stated)	8
COC(=O)c1sc(-c2ccccc2)cc1NC(C)=O	-26
CCN(CC)C(=O)CSc1nc(N)cc(=O)[nH]1	-11
COc1cc(CN2CCc3c(c(C(=O)NCCCN4CCOCC4)nn3C)C2)cc2c1OCO2	-12
Cn1c(C2CC(=O)N(Cc3ccccc3)C2)nc2ccccc21 (configuration not stated)	5
CC(CCN1CCC(n2cc(CCO)nn2)CC1)CC(C)(C)C (configuration not stated)	-19
CCOC(=O)CC1COc2ccccc2N1C(=O)c1ccc(F)cc1 (configuration not stated)	2
CC#CCC(C)[C@@H](O)/C=C/[C@@H]1[C@H]2C/C(=C/CCCC(=O)O)C[C@H]2C[C@H]1O (some centres not stated)	2&2
CCC(=O)Nc1ccc(-c2nnc3n2CCCCC3)cc1	-10
C=CC(=O)Nc1cc2c(Nc3ccc(F)c(Cl)c3)ncnc2cc1C#CC(C)(C)N1CCN(C)CC1	-9&-12&-16
CCOC(=O)c1c(-c2ccccc2)oc2ccc(OC)cc12	-19
OCc1nc2ccccc2s1	-11
CC1CN(c2c(F)c(N)c3c(=O)c(C(=O)O)cn(C4CC4)c3c2F)CC(C)N1 (configuration not stated)	-5
CC#CCOC(=O)C1=CCCN(C)C1	-12
Cc1cccc(-n2cc(CN(C)C(=O)C(=O)c3ccco3)cn2)c1	0
O=C(O)c1ccc(S(=O)(=O)N2CCCC2)cc1	-14

An excerpt of these results, in CSV form.
canonical_smiles,HCMV UL50-53 inh
Cc1cc2ccccc2n1CCNC(=O)c1ccc(S(=O)(=O)N(C)C)cc1,-8
CC(C)C[C@H]1C(=O)N2CCN(Cc3cnn(-c4ccccc4)c3)C[C@@H]2C(=O)N1C,-8
O=C(O)c1ccccc1-c1ccccc1C(=O)Nc1ccccc1O,-12
c1csc(CNc2nc3ccccc3n2CCN2CCCCC2)c1,-10
CC(=O)NCCCc1nc2ccccc2n1C(C)C,-1
C=CCN1CC(C(=O)O)CC1=O (configuration not stated),8
COC(=O)c1sc(-c2ccccc2)cc1NC(C)=O,-26
CCN(CC)C(=O)CSc1nc(N)cc(=O)[nH]1,-11
COc1cc(CN2CCc3c(c(C(=O)NCCCN4CCOCC4)nn3C)C2)cc2c1OCO2,-12
Cn1c(C2CC(=O)N(Cc3ccccc3)C2)nc2ccccc21 (configuration not stated),5
CC(CCN1CCC(n2cc(CCO)nn2)CC1)CC(C)(C)C (configuration not stated),-19
CCOC(=O)CC1COc2ccccc2N1C(=O)c1ccc(F)cc1 (configuration not stated),2
CC#CCC(C)[C@@H](O)/C=C/[C@@H]1[C@H]2C/C(=C/CCCC(=O)O)C[C@H]2C[C@H]1O (some centres not stated),2&2
CCC(=O)Nc1ccc(-c2nnc3n2CCCCC3)cc1,-10
C=CC(=O)Nc1cc2c(Nc3ccc(F)c(Cl)c3)ncnc2cc1C#CC(C)(C)N1CCN(C)CC1,-9&-12&-16
CCOC(=O)c1c(-c2ccccc2)oc2ccc(OC)cc12,-19
OCc1nc2ccccc2s1,-11
CC1CN(c2c(F)c(N)c3c(=O)c(C(=O)O)cn(C4CC4)c3c2F)CC(C)N1 (configuration not stated),-5
CC#CCOC(=O)C1=CCCN(C)C1,-12
Cc1cccc(-n2cc(CN(C)C(=O)C(=O)c3ccco3)cn2)c1,0
O=C(O)c1ccc(S(=O)(=O)N2CCCC2)cc1,-14

(listing goes on)
SMILES	HCMV UL50-53 inh
CC(=O)N/C(=C/c1ccc(Cl)c(Cl)c1)C(=O)O	-11
O=C1NC(=O)C(c2cn(CCCO)c3ncccc23)=C1c1cnccn1	-22
CC(=O)N(CC(C)C(=O)O)c1c(I)cc(I)c(N)c1I (configuration not stated)	-28
Cc1cccc(NS(=O)(=O)c2ccc3c(c2)OCCO3)c1	-4
CCOc1ccccc1N1C(=O)/C(=C\c2cccs2)SC1=S	10&1
O=C(c1ccc(S(=O)(=O)N2CCCCC2)cc1)N1CCN(c2cccc(Cl)c2)CC1	0
CCOC(=O)CCN1C(=O)/C(=C/c2ccccc2OC)SC1=S	0
CN(Cc1nc(-c2cccnc2)no1)C(=O)c1nc2ccccc2s1	5

Compound activity (PubChem BioAssay)
